Six1-Eya2 inh: inhibitors of human Six1/Eya2 interaction; AID 651725; activity change, % (no concentration beside the values); AlphaScreen GST-Six1/His-Eya2 binding, biochemical; stronger effect = lower value; control for the full effect not named in the record; 360,000 tested, 0.56% active; in the data active = activity change below about -65%; inconclusive = about -30% to -65%; inactive = above about -30%; note: % is set by controls: 0 for no effect and ±100 for the full control effect; compound concentration not given in the record
Target sequence (O00167 whole entry, looked up): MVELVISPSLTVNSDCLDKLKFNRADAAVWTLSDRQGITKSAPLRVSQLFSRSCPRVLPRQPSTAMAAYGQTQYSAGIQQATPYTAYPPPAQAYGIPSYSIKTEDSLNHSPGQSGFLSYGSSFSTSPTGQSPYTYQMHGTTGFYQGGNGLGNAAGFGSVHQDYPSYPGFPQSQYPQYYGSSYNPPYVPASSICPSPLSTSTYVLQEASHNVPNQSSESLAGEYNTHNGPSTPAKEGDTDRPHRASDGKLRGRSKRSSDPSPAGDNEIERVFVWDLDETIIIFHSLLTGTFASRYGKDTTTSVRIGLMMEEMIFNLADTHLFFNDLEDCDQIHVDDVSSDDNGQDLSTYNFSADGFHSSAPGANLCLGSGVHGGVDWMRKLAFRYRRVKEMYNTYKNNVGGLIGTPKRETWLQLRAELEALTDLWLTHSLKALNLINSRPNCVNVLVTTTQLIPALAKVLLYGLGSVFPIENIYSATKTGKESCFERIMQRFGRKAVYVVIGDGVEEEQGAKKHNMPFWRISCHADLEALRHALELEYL
Target sequence (Q15475 whole entry, looked up): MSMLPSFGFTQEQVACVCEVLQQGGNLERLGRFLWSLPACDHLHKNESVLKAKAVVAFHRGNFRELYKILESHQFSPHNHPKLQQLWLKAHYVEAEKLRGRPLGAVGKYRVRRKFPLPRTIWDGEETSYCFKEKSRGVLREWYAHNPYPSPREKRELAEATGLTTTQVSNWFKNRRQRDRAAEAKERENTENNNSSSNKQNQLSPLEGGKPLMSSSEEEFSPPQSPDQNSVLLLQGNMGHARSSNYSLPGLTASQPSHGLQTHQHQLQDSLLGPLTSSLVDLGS
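Compounds are tested against tagged Six1 and Eya2 proteins bridged by glutathione donor and nickel acceptor beads; after a one-hour incubation at 37 °C without light, AlphaScreen emission is recorded.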
PINK1 modulator: modulators of PINK1 expression | PINK1 immunofluorescence, high-content cytometry, 24 h | Potency, µM (top dose mostly 76.6 µM), for the others: at the top dose activation (PINK1 increase), hits mostly activators | 410,000 tested, 0.2% active | AID 624263; active = well fitted activation curve with a large enough effect; inconclusive = small, poorly fitted or top-dose-only effect; inactive = flat fitted curve, though single readings scatter; cell line not stated here;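 note: potency is the fitted concentration of half-maximal effect; % of control where 0% means no effect; nearly all actives have a fitted effect of over 65% in size; a mitochondrial uncoupler was the plate control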
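Stable cell line, 250 cells/well, 12 h attachment; compounds pinned at 5 concentrations, 24 h; CCCP control. Fixed with nuclear dye, primary antibodies 12 h at 10 degrees C, secondary plus cell stain; laser-scanning cytometer read.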
CtBP-E1A inh: CtBP/E1A binding inhibition; AlphaScreen GST-E1A/His-CtBP binding, 1536-well; stronger effect = lower value; control for the full effect not named in the record; activity change, % (concentration not given with the values); 340,000 tested, 0.49% active; AID 651724; in the data active means activity change below about -65%; inconclusive means about -30% to -65%; inactive means above about -30%; note: % is set by controls: 0 for no effect and ±100 for the full control effect
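GST-E1A and His-tagged CtBP (125 nM each as 5X stock) were preincubated with pin-transferred compound for 2 h at 37 °C in the dark, then glutathione donor and nickel acceptor beads were added for 1 h before AlphaScreen reading.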
TRPML1 ag: activates the human TRPML1 channel | TRPML1-expressing cells, Ca2+ dye fluorescence, FDSS; host cell line not named in the record; reference of the full effect not given here | AID 624414 | 410,000 tested, 0.12% active | activation, % (concentration not given with the values); in the data active = activation above about 50%; inconclusive = about 30% to 50%; inactive = below about 30%; note: 0% is about no effect; the text of the record puts the active cut at 80%
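In this qHTS format, compounds were pin-transferred onto Ca8-dye-loaded TRPML1-DL cells induced with Tet overnight, and intracellular Ca2+ fluorescence was recorded kinetically for 110 s after a 10 s baseline. A subsequent 4uM final 54-4 (EC80) addition followed by a second 110 s read served as the antagonist phase.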
D2 ag: human D2 receptor agonism in beta-arrestin assay. DiscoveRx PathHunter D2 beta-arrestin, luminescence, 90 min; 100% = 57 uM dopamine signal. P14416. 360,000 tested, 0.084% active. AID 624465. activation, % (test concentration not listed); in the data active = activation above about 40%; inconclusive = about 15% to 40%; inactive = below about 15%; note: compound concentration not given in the record; the text of the record calls up to 30% inactive
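DiscoveRx PathHunter D2 beta-arrestin cells (2,100/well) attached overnight, then compound-stimulated 90 min at 37 C in HBSS/10 mM HEPES/0.1% Tween-20 buffer; beta-galactosidase complementation read by luminescence after 1 h at ambient temperature. Dopamine 57 uM final (EC100) as control.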
TRPML1 blocker: human mucolipin-1 channel inhibition; TRPML1-inducible cells, Ca2+ dye fluorescence, FDSS; stronger effect = lower value; inhibition of EC80 agonist-evoked calcium signal; 390,000 tested, 0.02% active; Q9GZU1; activity change, negative = inhibition, % (concentration not given with the values); in the data active means activity change below about -50%; inconclusive means about -30% to -50%; inactive means above about -30%;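 note: stimulus is agonist 54-4 at its EC80 concentration; % is set by controls: 0 for no effect and ±100 for the full control effect; compound concentration not given in the record; the text of the record puts the active cut at -80%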
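TRPML1-DL cells, Tet-induced overnight (~16 h, 37 °C) at 1,500 cells/well, were loaded with Ca8 no-wash dye plus quencher for 45-90 min at room temperature. Compounds were pinned during FDSS kinetic reading; agonist 54-4 at EC80 (4 uM final) then added.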
* = called active by the depositor; ? = inconclusive; · = not tested or not shown; & = joins results of further samples; [ ] = another dose, or the depositor's remark.

1. COC(=O)[C@H](Cc1ccccc1)NC(=O)NCCC1=CCCCC1
2. CC1(C(=O)NCc2cccc3ccccc23)CCN1Cc1ccc(-c2ccccc2)o1 (stereo not given)
3. CCOc1ccc(S(=O)(=O)NCCC(=O)NC2=NCCS2)cc1
4. CN1CCN(S(=O)(=O)c2ccccc2)C(c2ccccc2)C1 (stereo not given)
5. O=Cc1cn(-c2ccccc2)nc1-c1ccccn1
6. O=C(COC(=O)/C=C/c1ccc(S(=O)(=O)N2CCCCCC2)cc1)NCc1ccccc1Cl
7. COC(=O)c1cn(-c2nc(C)c3c(n2)CCC3)nn1
8. COC(=O)C1=C(C)NC(C)=C(C(=O)OC)C1C(=O)OC(C)C(=O)c1ccccc1 (stereo not given)

assay / entry,1,2,3,4,5,6,7,8
Six1-Eya2 inh,5,-21,8,-1,3,1,1,3&-1
PINK1 modulator,-3.2%[38.3 µM],?,-1.1%,1.9%,-0.5%,1.9%,0.0%,1.8%&-0.7%
CtBP-E1A inh,8,-13,7,4,-17,-7,-16,6&-1
TRPML1 ag,-0.2,0.5,-0.1,2.8,1.5,1.6,-0.9,-0.7&-0.2
D2 ag,-2.3,-5.6,0.1,3.0,1.5,2.8,-3.2,3.3&3.9
TRPML1 blocker,3,68,-11,-16,23,39,-6,-10&-6

9. COc1ccc(Nc2nnc(Cc3ccccc3)c(=O)[nH]2)c(OC)c1
10. Cc1ccc(NC(=O)/C(=C/c2cccc(Br)c2)NC(=O)c2ccco2)cc1
11. O=C1CCc2cc(NS(=O)(=O)c3ccc(Cl)cc3)cc3c2N1CC3
12. Cc1nc(C)c(-c2nnc(-c3ccccc3Cl)o2)cc1C(=O)NN
13. Cc1cc(NC(=O)Cc2cn3ccsc3n2)n(-c2ccccc2)n1
14. CCOC(=O)c1cnc(SCc2nc(N)nc(Nc3ccc(C)cc3)n2)nc1N
15. COc1cc2c(cc1OC)-c1cc(Nc3ccccc3C)nc(=O)n1CC2
16. COc1cc(Nc2ccc(C(=O)O)cc2[N+](=O)[O-])cc(OC)c1

assay / entry,9,10,11,12,13,14,15,16
Six1-Eya2 inh,-2,-9,-2,0,-13,1,?,-18
PINK1 modulator,0.7%,17%,3.2%,-0.2%,-1.1%,4.8%,1.8%,-0.3%
CtBP-E1A inh,2,6,-6,-3,-7,-4,?,·
TRPML1 ag,-0.8,3.1,-0.2,0.0,-1.1,2.9,0.6,1.1
D2 ag,-1.9,-1.2,-1.9,1.1,1.4,3.5,3.4,-5.9
TRPML1 blocker,21,11,-16,26,7,8,3,-1

17. CC(C)(C)C(=O)Nc1ccc2c(c1)-c1cc(NC(=O)C(C)(C)C)ccc1C2
18. CN(C(=O)c1cccc(NC(=O)Cc2ccc(NC(=O)C3CCCN(S(=O)(=O)c4cccc([N+](=O)[O-])c4)C3)cc2)c1)C1CCCC1 (stereo not given)
19. O=C(CCC(=O)Nc1ccc(Cl)cc1Cl)NNC(=O)Nc1ccccc1
20. O=c1[nH]c2ccc(S(=O)(=O)Nc3ccc(-c4nnc5n4CCCCC5)cc3)cc2o1
21. CCOC(=O)CSc1nc2ccccc2c(=O)n1CCC(=O)NCCc1ccc(OC)c(OC)c1
22. CCOc1ccc(N2C(=O)c3cccnc3C2Nc2ccc(C)cc2)cc1 (stereo not given)
23. COc1ccc([C@H]2CC(=O)C[C@@H](CCn3cc(-c4cccnc4)nn3)O2)cc1
24. Cc1nc(N2CCN(C(=O)c3ccco3)CC2)nc2c1C(=O)CC(C)C2 (stereo not given)

assay / entry,17,18,19,20,21,22,23,24
Six1-Eya2 inh,6,-6,-6,0,5,2,5,2
PINK1 modulator,22%[38.3 µM],-1.0%,0.6%,-0.3%,5.8%[38.3 µM],-1.7%[38.3 µM],0.6%,0.1%
CtBP-E1A inh,9,-6,-2,0,13,0,1,6
TRPML1 ag,-0.1,-0.9,2.8,0.4,-0.5,-0.7,-0.2,2.3
D2 ag,1.4,2.5,8.3,-0.5,0.9,1.4,·,5.8
TRPML1 blocker,-2,-11,-10,5,1,7,·,-20

25. CC(=O)N1CCN(S(=O)(=O)c2cccc(C(=O)Nc3nc4ccccc4[nH]3)c2)CC1
26. CCN(CC)c1ccc(-c2nnc(SCC(=O)Nc3ccccc3C#N)n2-c2ccccc2)cc1
27. O=C(NCCCN1CCN(c2ccc(F)cc2)CC1)Nc1ccccc1Cl
28. CCOC(=O)c1c(C)[nH]c(-c2csc(C)n2)c1C
29. CCCSC1=C(C#N)C(c2cccnc2)C(C(=O)OCC)=C(c2ccccc2)N1 (stereo not given)
30. CN(CC(=O)Nc1ccccc1Br)C(=O)c1ccncc1
31. CN1CCN(C(=O)CCCN2C(=O)/C(=C/c3ccccc3)SC2=S)CC1
32. CCCCc1nc(Cl)c(CO)n1Cc1ccc(-c2ccccc2-c2nn[nH]n2)cc1

assay / entry,25,26,27,28,29,30,31,32
Six1-Eya2 inh,-30,-28,·,-17,0,1,6,-3
PINK1 modulator,-1.2%,-1.6%,0.7%,3.3%,-0.5%,1.5%,2.0%,0.0%
CtBP-E1A inh,?,-14,·,1,-2,0,-11,0
TRPML1 ag,0.9,0.2,0.0,0.2,2.2,-0.5,-0.4,0.2
D2 ag,1.5,0.3,·,0.2,-3.2,-0.5,-2.4,-7.0
TRPML1 blocker,27,21,-10,-12,-2,22,-6,21

33. Cn1cc(C(=O)NCc2ccccc2)c(=O)c2cc(S(=O)(=O)N3CCOCC3)ccc21
34. COc1ccc(C(=O)OCc2cc(=O)n3c(C)csc3n2)cc1F
35. COc1cc2c(c(OC)c1OC)-c1ccc(N(C)CC(OC)OC)c(=O)cc1[C@@H](NC(C)=O)CC2
36. CCOC(=O)N1CCC(NC(=O)CSCc2cnn(-c3ccccc3)c2-n2cccc2)CC1
37. COc1cc(-c2cc(OC)c3c(C)oc(C)c3c(=O)c2)ccc1O
38. O=S(=O)(NC1CCCCC1)c1ccc(Cl)s1
39. Cc1nc(N)sc1N=Nc1ccc(Br)cc1
40. CCc1nc2ccc(C(=O)N3CCN(S(=O)(=O)CC)CC3)cn2c1N(CC)C(=O)NCCc1ccccc1

assay / entry,33,34,35,36,37,38,39,40
Six1-Eya2 inh,·,2,6,-1,-15,2,?,1
PINK1 modulator,0.9%,14%,12%,0.0%,?,-0.8%[38.3 µM],-3.1%[38.3 µM],2.8%
CtBP-E1A inh,·,-1,5,1,-16,2,?,3
TRPML1 ag,-1.0,0.3,1.2,0.6,0.9,0.6,0.3,-0.6
D2 ag,·,-3.3,6.1,0.5,0.2,-0.7,-2.5,-3.4
TRPML1 blocker,14,22,16,4,0,-4,11,·

(next part)
cpd	structure	Six1-Eya2 inh	PINK1 modulator	CtBP-E1A inh	TRPML1 ag	D2 ag	TRPML1 blocker
41	COc1ccc(-c2nn(-c3ccccc3)cc2/C=N/n2cnnc2)cc1OC	3	2.7%	1	-1.7	-2.1	-9
42	O=C(Nc1cc(S(=O)(=O)N2CCCCC2)ccc1Cl)c1ccc(F)cc1	21	0.0%	0	1.7	2.8	13
43	CCN(CC)CCCNC(=O)c1nn2c(C(F)(F)F)cc(-c3ccccc3)nc2c1Cl	-5	0.1%	6	-0.1	-3.2	3
44	Cc1ccc(S(=O)(=O)NC(=O)Nc2cccc(S(=O)(=O)N(C)C)c2)cc1	6	1.9%	5	1.2	-3.0	32
45	CCOC(=O)N1CCC(NC(=O)c2ccc3c(c2)N(Cc2ccc(C)cc2)CCS3)CC1	-4	2.0%	-8	1.9	-0.3	-7
46	COc1cccc(N2CCN(S(=O)(=O)c3cn(C)c(C)n3)CC2)c1	·	-3.6%	·	0.2	·	17
47	CN(C)c1ccc(S(=O)(=O)NCC(=O)N2CCN(S(=O)(=O)c3cccc(F)c3)CC2)cc1[N+](=O)[O-]	0	-1.4%	-18	0.1	-6.0	-7
48	O=S(=O)(c1ccc(Cl)nc1)N1CCN(c2ncccn2)CC1	2	2.9%	4	0.5	-0.1	0
49	CN(C)c1ccc(-c2ccc([C@H]3[C@@H]4C=CCC[C@@]4(C)C(=O)N3Cc3ccccc3)c(F)c2)cc1	?	4.8%	?	-0.3	-6.2	69
50	COc1ccc(C2/C=C\CN(C(=O)OCC3c4ccccc4-c4ccccc43)CC(=O)N2Cc2cccc(F)c2)cc1 (stereo not given)	-12	-0.4%	-14	1.8	0.5	41
51	O=c1c(F)cn(C2CCCO2)c(=O)n1Cc1ccccc1F (stereo not given)	7	·	10	0.3	0.0	6
52	Cc1ccc(OC(=O)C(C)c2cccc(C(=O)c3ccccc3)c2)cc1 (stereo not given)	25	3.4%[38.3 µM]	34	-0.3	-0.1	-7
53	COc1ccc(CCN2C(=O)/C(=C\c3ccco3)SC2=S)cc1OC	-6	-2.6%	-10	1.3	6.6	29
54	Cc1cccn2c(=O)c3cc(C(=O)NC4CCCCC4)c(=N)n(Cc4ccc(F)cc4)c3nc12	4	1.0%	6	-0.6	-2.0	0
55	Cc1cnn(C(=O)c2oc3ccccc3c2C)c1	2	1.9%[38.3 µM]	44	0.7	0.0	-15

Shown with each value named: 4 of the compounds above
[44] Cc1ccc(S(=O)(=O)NC(=O)Nc2cccc(S(=O)(=O)N(C)C)c2)cc1
- Six1-Eya2 inh: 6
- PINK1 modulator: 1.9%
- CtBP-E1A inh: 5
- TRPML1 ag: 1.2
- D2 ag: -3.0
- TRPML1 blocker: 32

[45] CCOC(=O)N1CCC(NC(=O)c2ccc3c(c2)N(Cc2ccc(C)cc2)CCS3)CC1
- Six1-Eya2 inh: -4
- PINK1 modulator: 2.0%
- CtBP-E1A inh: -8
- TRPML1 ag: 1.9
- D2 ag: -0.3
- TRPML1 blocker: -7

[46] COc1cccc(N2CCN(S(=O)(=O)c3cn(C)c(C)n3)CC2)c1
- Six1-Eya2 inh: ·
- PINK1 modulator: -3.6%
- CtBP-E1A inh: ·
- TRPML1 ag: 0.2
- D2 ag: ·
- TRPML1 blocker: 17

[47] CN(C)c1ccc(S(=O)(=O)NCC(=O)N2CCN(S(=O)(=O)c3cccc(F)c3)CC2)cc1[N+](=O)[O-]
- Six1-Eya2 inh: 0
- PINK1 modulator: -1.4%
- CtBP-E1A inh: -18
- TRPML1 ag: 0.1
- D2 ag: -6.0
- TRPML1 blocker: -7

Later entries
cpd	structure	Six1-Eya2 inh	PINK1 modulator	CtBP-E1A inh	TRPML1 ag	D2 ag	TRPML1 blocker
56	COc1ccc(NC(=O)CN2CCN(c3c(C)cccc3C)CC2)cc1	-1	4.3%	2	1.2	6.9	-6
57	CCS(=O)(=O)N1CCC(C(=O)NCc2ccc(OC)cc2)CC1	3	0.4%	-5	-0.7	5.9	9
58	CC1C/C(=N/Nc2nc3ccccc3[nH]2)CC(C)(C)C1 (stereo not given)	-4	4.7%	-10	0.1	-4.3	12
59	O=C(NCc1ccc(F)cc1)c1cc(S(=O)(=O)N2CCCCC2)ccc1Cl	-1	-0.3%	1	1.8	-0.1	10
60	CCOC(=O)N/N=C(\C)c1ccc(Oc2ncccn2)cc1	0	4.0%	·	2.0	-0.2	0
61	O=C(O)C1=C[C@H](c2ccc(C(F)(F)F)cc2)C[C@H](OCCCCO)O1	0	0.0%	1	-0.3	-0.7	6
62	CCOc1ccc(S(=O)(=O)Nc2cc(S(=O)(=O)N(CC)CC)ccc2N2CCCC2)cc1	-5	3.4%	-2	9.4	2.6	-23
